Source: PubChem (National Center for Advancing Translational Sciences (NCATS))
SARS PLP yeast – inhibitors of SARS-CoV papain-like protease in yeast; S. cerevisiae expressing SARS-CoV PLpro, growth rescue; control for the full effect not named in the record; Potency, µM (series often up to 32.9 µM), for inactives: at the highest dose activity, positive = growth rescue; 330,000 tested, 0.19% active; AID 485353; also: 0% is about no effect; nearly all actives have a fitted effect of over 55% in size; growth read by luminescence after 48 h
Cruzain inh Det – cruzain (T. cruzi) inhibition with detergent. P25779. purified cruzain, Z-FR-AMC fluorescence, 0.01% Triton. Potency, µM, without a hit: max response, negative = inhibition, actives largely listed as inhibitors. 200,000 tested, 0.43% active. AID 1478; active = well fitted curve in the direction sought with a large enough effect; inconclusive = small, poorly fitted or top-dose-only effect, or another doubt; inactive = no such curve, though single readings can be large; an effect the other way counts as inactive or inconclusive;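 also: plate controls were neutral wells for no effect and buffer without enzyme for full effect; nearly all actives have a fitted effect of over 40% in size; top concentration of the series not given in the record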
Target sequence (P25779 123-467 limits assumed): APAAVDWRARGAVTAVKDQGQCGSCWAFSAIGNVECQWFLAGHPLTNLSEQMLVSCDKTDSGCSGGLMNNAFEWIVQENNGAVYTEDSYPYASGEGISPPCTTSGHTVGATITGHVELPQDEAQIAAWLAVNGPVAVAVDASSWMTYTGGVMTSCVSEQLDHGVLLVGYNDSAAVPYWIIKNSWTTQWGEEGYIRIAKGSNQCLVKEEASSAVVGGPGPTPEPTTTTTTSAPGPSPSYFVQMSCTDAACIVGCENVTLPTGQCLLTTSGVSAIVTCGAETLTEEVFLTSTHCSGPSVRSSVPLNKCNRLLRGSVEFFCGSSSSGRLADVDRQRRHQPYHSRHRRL
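Detergent-containing arm of a paired screen for aggregation-based inhibition: 0.01% Triton X-100 present. Cruzain at 1.5 nM cleaved 2 uM Z-FR-AMC at pH 5.5 with 5 mM DTT; AMC fluorescence gain over 60 s measured activity.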
MARV entry inh – Marburg virus entry inhibition; Marburg virus pseudotyped entry inhibition, cell reporter; control for the full effect not named in the record; about a third of the inactives were read at about 46 µM; Potency, µM (doses to about 37.8 µM), for inactives: top-dose activity change, negative = inhibition, actives largely listed as inhibitors; 300,000 tested, 1.8% active; AID 540276; active = well fitted inhibition curve with a large enough effect; inconclusive = small, poorly fitted or top-dose-only effect, or effect the other way; inactive = flat fitted curve, though single readings scatter; tested in HEK293 cells; about a fifth of its hits are not listed in these tables; also: % is scaled to controls: 0 for no effect and ±100 for the full control effect; luciferase read-out
Lassa entry inh – blocks Lassa virus binding to or entry into cells; 300,000 tested, 1.2% active; Lassa virus pseudotype entry inhibition, cell reporter; control for the full effect not named in the record; Potency, µM (series often up to 37.9 µM), for the others: at the top dose activity change, negative = inhibition, most hits filed as inhibitors; AID 540256; active means well fitted inhibition curve with a large enough effect; inconclusive means small, poorly fitted or top-dose-only effect, or effect the other way; inactive means flat fitted curve, though single readings scatter; tested in HEK293 cells; also: % is scaled to controls: 0 for no effect and ±100 for the full control effect; nearly all actives have a fitted effect of over 50% in size; luciferase read-out
RE007 growth inh – less growth of the S. pombe RE007 Vpr strain; S. pombe RE007 Vpr strain, BacTiter-Glo ATP luminescence, 24 h; control for the full effect not named in the record; Potency, µM (highest dose often 92.2 µM), for inactives: at the highest dose activity change, negative = less growth; 360,000 tested, 0.21% active; active = well fitted falling curve with a large enough effect; inconclusive = small, poorly fitted or top-dose-only effect; inactive = no such curve, though single readings can be large or run the other way;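 also: % is scaled to controls: 0 for no effect and ±100 for the full control effect; nearly all actives have a fitted effect of over 50% in size; the assay follows cell death caused by Vpr and the record does not say whether a fall means rescue or toxicity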
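Fission yeast RE007 carrying one integrated HIV-1 vpr copy, seeded at OD 0.01 in PMG+AL medium with 23 nL pinned compound. Grown 24 h at 30 degrees; viability read by BacTiter-Glo luminescence after 5 min.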
StopGo reporter – FMDV 2A StopGo reporter, luciferase signal | human cells with a luciferase reporter of 2A StopGo recoding; control for the full effect not named in the record | Potency, µM (top dose mostly 57.9 µM), without a hit: at the top dose signal change, negative = less light | 410,000 tested, 1.2% active; active = well fitted falling curve with a large enough effect; inconclusive = small, poorly fitted or top-dose-only effect; inactive = no such curve, though single readings can be large or run the other way; tested in HEK293T cells; also: % is scaled to controls: 0 for no effect and ±100 for the full control effect; nearly all actives have a fitted effect of over 45% in size; luciferase light after 4 h
NS1 function inh – inhibitors of influenza NS1 protein function; Potency, µM (doses to about 46.1 µM), for the others: at the highest dose activity, positive = more growth; 270,000 tested, 0.4% active; AID 2326; S. cerevisiae slowed by influenza A NS1, growth recovery by OD600; also: actives are rising curves; nearly all actives have a fitted effect of over 50% in size
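Read-out: OD600 growth recovery of NS1-expressing budding yeast. Cells grown overnight at 30C in -URA glucose medium, washed, resuspended and diluted 1:100 in 2% galactose assay medium, pH 6.0. Same strain lacking NS1 served as positive control.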
Cruzain noTriton – blocks cruzain activity in detergent-free assay; 200,000 tested, 2.3% active; AID 1476; purified cruzain, Z-FR-AMC fluorescence, no detergent; P25779; Potency, µM, inactives show max response, negative = inhibition, usual class: inhibitors; active = well fitted curve in the direction sought with a large enough effect; inconclusive = small, poorly fitted or top-dose-only effect, or another doubt; inactive = no such curve, though single readings can be large; an effect the other way counts as inactive or inconclusive;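 also: plate controls were enzyme without inhibitor for no effect and buffer without enzyme for full effect; nearly all actives have a fitted effect of over 40% in size; top concentration of the series not given in the record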
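Detergent-free condition (0.00005% Triton X-100) in acetate buffer pH 5.5 with DTT. 1.5 nM enzyme and compound were pre-mixed 15 min, then 2 uM Z-FR-AMC substrate added; reaction progress from fluorescence change between first and third reads (60 s).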
* = called active by the depositor; ? = inconclusive; nt = not tested or not shown; [ ] = remark or other dose. Unless noted, calls follow the shape of the dose curve; as a rule, active means well fitted rising curve with a large enough effect; inconclusive means small, poorly fitted or top-dose-only effect; inactive means no such curve, though single readings can be large or run the other way. Potency is read from the fitted curve at half-maximal effect. The order is random; any-hit rate near 4.8%.

SMILES | SARS PLP yeast | Cruzain inh Det | MARV entry inh | Lassa entry inh | RE007 growth inh | StopGo reporter | NS1 function inh | Cruzain noTriton
CC(C)C(=O)NC(c1cccc([N+](=O)[O-])c1)c1ccc2cccnc2c1O (stereo not given) | 3.2µM* | nt | ? | 7.1µM* | -19% | -11% | nt | nt
CC12CCC(C(=O)Nc3ccc(Br)cn3)(OC1=O)C2(C)C (stereo not given) | 1% | nt | 0%[46.1 µM] | -2% | 12% | -7% | 3% | nt
COc1ccc(-c2coc3cc4oc(=O)cc(-c5ccccc5)c4cc23)cc1F | 28% | 1.2% | ? | ? | 14% | ? | 8% | 10µM*
Cc1ccc(O)c(N=Nc2ccc(S(=O)(=O)N3CCOCC3)cc2)c1 | 0% | nt | ? | -29% | -4% | 17% | 3% | nt
Cn1c(=O)n(Cc2ccccc2Cl)c(=O)c2c1[nH]c(=S)n2C | 1% | nt | 3%[46.1 µM] | 24%[46.1 µM] | 6% | -7% | 4% | nt
COc1ccccc1NC(=O)c1c([N+](=O)[O-])c(C(C)(C)C)nn1C | -1% | nt | -11%[46.1 µM] | -19% | 33% | -24% | -7% | nt
CCOc1ccc(NC(=O)CC2C(=O)Nc3ccccc3N2C(=O)c2ccccc2)cc1 (stereo not given) | 0% | nt | ? | 4% | 12% | -13% | -2% | nt
COc1ccc2c(-c3ccccc3)cc(SCC(=O)NC(N)=O)nc2c1 | -4% | nt | -3% | -2% | 12% | -2% | nt | nt
CCC(Sc1ncccc1C(=O)OCCN1CCCC1=O)C(=O)NCc1ccco1 (stereo not given) | 12% | -4.2% | -1% | 0% | 14% | 7% | ? | 20%
Cc1ccc(C(=O)n2c(N)nc3ccccc32)cc1 | -2% | nt | 7.9µM* | ? | 0% | 10µM* | -6% | nt
COc1ccc(-c2ccc(NC(=O)c3ccco3)cc2)nn1 | -1% | nt | ? | ? | ? | 11µM* | nt | nt
O=C1N(c2ccccc2)C2CS(=O)(=O)CC2N1c1ccc(Cl)c(Cl)c1 (stereo not given) | 0% | 0.8% | -10% | -16% | 1% | nt | -4% | -20%
Cc1ccc(S(=O)(=O)N2CCCCC2)cc1C(=O)NCCCN1CCOCC1 | 1% | nt | ? | ? | -17% | -26% | 9% | nt
COc1cc(NC(=O)c2nn(-c3ccc(C)cc3)c(=O)c3c2c2ccccc2n3C)cc(OC)c1OC | nt | -0.4% | 1%[46.1 µM] | 19%[46.1 µM] | nt | -10% | nt | -22%
CC(=O)C1=C(C)NC(C)=C(C(C)=O)C1c1ccc(-c2ccccc2Cl)o1 | 5% | -14% | 6% | 6% | 5% | 0% | -53% | ?
O=C(O)CCC(=O)N(Cc1ccco1)C1CC(=O)N(c2ccccc2)C1=O (stereo not given) | 0% | nt | 1%[46.1 µM] | -8%[46.1 µM] | -16% | 13% | 4% | nt
CCOC(=O)c1ccc(NC(=O)c2c(C)nn(-c3ccc(F)cc3)c2-n2cccc2)cc1 | nt | -1.4% | nt | -2%[46.1 µM] | nt | -9% | nt | 5%
CCCn1nnnc1NCc1ccccc1OCc1ccc(F)cc1 | -1% | -2.1% | ? | 11% | -14% | nt | -13% | -1%
CC1=NN2C(=N)/C(=C\c3cc(C)n(Cc4ccccc4)c3C)C(=O)N=C2S1 | 0% | nt | -4%[46.1 µM] | -4%[46.1 µM] | 3% | -12% | 4% | nt
Cc1ccc(COc2ccc(-c3cc(C(F)(F)F)n4nc(C)cc4n3)cc2)cc1 | nt | 2.5% | 4%[46.1 µM] | 20%[46.1 µM] | nt | -4% | nt | 10%
O=C(O)[C@H]1NC[C@H]2C[C@H]21 | -5% | nt | -6%[46.1 µM] | 1%[46.1 µM] | 2% | -13% | -91% | nt
O=C(Nc1ccccc1)C1CCCN1C(=O)Nc1ccccc1[N+](=O)[O-] (stereo not given) | 0% | nt | 0% | -6% | -3% | -12% | 5% | nt
CC1=C(C(=O)Nc2ccccc2)C(c2ccccc2[N+](=O)[O-])NC(=O)N1 (stereo not given) | 0% | nt | nt | nt | 0% | 5% | 12% | nt
O=C(O)c1cc(NC(=O)c2ccccc2[N+](=O)[O-])ccc1O | 1% | nt | 8%[46.1 µM] | 0% | -8% | -5% | 3% | nt
CN1CCCC(C#CC(O)(c2ccccc2)c2ccccc2)C1 (stereo not given) | 0% | nt | 19%[46.1 µM] | 4% | 0% | -22% | -5% | nt

Continued; the last four above are carried over.
SMILES | SARS PLP yeast | Cruzain inh Det | MARV entry inh | Lassa entry inh | RE007 growth inh | StopGo reporter | NS1 function inh | Cruzain noTriton
O=C(Nc1ccccc1)C1CCCN1C(=O)Nc1ccccc1[N+](=O)[O-] (stereo not given) | 0% | nt | 0% | -6% | -3% | -12% | 5% | nt
CC1=C(C(=O)Nc2ccccc2)C(c2ccccc2[N+](=O)[O-])NC(=O)N1 (stereo not given) | 0% | nt | nt | nt | 0% | 5% | 12% | nt
O=C(O)c1cc(NC(=O)c2ccccc2[N+](=O)[O-])ccc1O | 1% | nt | 8%[46.1 µM] | 0% | -8% | -5% | 3% | nt
CN1CCCC(C#CC(O)(c2ccccc2)c2ccccc2)C1 (stereo not given) | 0% | nt | 19%[46.1 µM] | 4% | 0% | -22% | -5% | nt
CCc1ccccc1NC(=O)CSc1ncc2c(n1)-c1ccccc1N(C)S2(=O)=O | nt | 6.0% | nt | 4%[46.1 µM] | nt | -15% | nt | 13%
Cc1ccc2c(c1)C(c1ccccc1)N(C(=O)Cc1ccc(F)cc1)CC(=O)N2 (stereo not given) | nt | -6.2% | 9%[46.1 µM] | ? | nt | -19% | nt | 4%
CC(C)NS(=O)(=O)c1ccc(OCC(=O)Nc2ccc(F)cc2F)cc1 | 13% | 2.5% | -14% | 37%[14.3 µM] | -12% | 48%[activator] | -1% | 12%
COc1cccc(C(=O)NCCC2=CCCCC2)c1OC | -2% | -4.4% | ? | 23% | -12% | 54%[activator] | -17% | 3%
Cn1c(=O)oc2cc(S(=O)(=O)Nc3ccccc3F)ccc21 | 0% | nt | ? | 7% | -7% | 20% | 7% | nt
CCN(CC)C(=O)CC(c1cc(OC)c(OC)c(OC)c1)c1c(OC)cc(OC)c2ccc(=O)oc12 (stereo not given) | 0% | nt | nt | nt | 5% | -4% | -6% | nt
NC(=S)N/N=C/c1ccc(-c2ccc(SC(F)F)cc2)o1 | -1% | nt | ? | ? | -12% | -18% | -3% | nt
O=C(c1ccc(S(=O)(=O)Nc2ccccc2)cc1)N1CCOCC1 | -2% | -4.6% | 6% | -3% | 9% | 0% | 1% | 10%
O=C1CSC(c2ccccn2)N1c1ccc(C(F)(F)F)cc1 (stereo not given) | 0% | nt | nt | nt | -3% | -27% | -45% | nt
Cc1cccc2cc(CN(CCCN(C)C)C(=S)NCCc3ccccc3)c(=O)[nH]c12 | 16% | nt | ? | -15% | -8% | -10% | -3% | nt
Cc1cccc(-n2nc3c(c2NC(=O)CCCl)CSC3)c1 | 2% | nt | nt | nt | 5% | 25% | -1% | nt
Cc1cc(NS(=O)(=O)c2ccc(NC(=O)CSc3nnc(-c4ccco4)n3N)cc2)nc(C)n1 | ? | -3.0% | -5% | 20% | 7% | 9% | 0% | 1%
COC(=O)c1sc(NC(=O)c2cc(-c3ccccc3)nc3ccccc23)c(C#N)c1C | 4% | -5.7% | ? | ? | 5% | 3.2µM* | 13% | -20%
CCOC(=O)CC1c2cc(OCC)c(OCC)cc2CCN1C(=O)Nc1cccc(Cl)c1 (stereo not given) | nt | -6.6% | nt | 1%[46.1 µM] | nt | -13% | nt | ?
COc1ccc(NC(=O)NNS(=O)(=O)c2ccc(OC)c(OC)c2)c(OC)c1 | -2% | nt | -9% | -18% | 8% | -16% | 11% | nt
CCOC(=O)C1(Cc2cccc(Cl)c2)CCCN(C(=O)c2cc(C)n(C)n2)C1 (stereo not given) | -6% | nt | ? | ? | 7% | -33% | -1% | nt
COc1ccc(-n2c(C)cc(C(=O)CSc3nnc(-c4cccs4)o3)c2C)cc1 | -1% | -1.0% | ? | -25% | -19% | -27% | 11µM* | ?
COc1ccc(N2C(=O)CN=C2Nc2nc(C)cc(C)n2)cc1OC | -6% | 1.0% | -5% | 1% | -8% | 7% | 1% | -9%
O=C1CN(C(=O)c2ccccc2)C(c2ccccc2)c2cc(F)ccc2N1 (stereo not given) | -3% | nt | nt | nt | -9% | -5% | -2% | nt
O=C(NCCN1CCCC1)C1COc2ccccc2O1 (stereo not given) | 8% | 3.3% | ? | 0% | 0% | -11% | -12% | 10%
CC1CCN(Cc2c(C(=O)N/N=C/c3cccc(Cl)c3)nnn2-c2nonc2N)CC1 | -2% | nt | nt | nt | -14% | -21% | 4% | nt
COc1cccc(C(=O)Nc2ccc(NC(=O)C3CCCCC3C(=O)O)cc2)c1 (stereo not given) | 26% | nt | 26% | -4% | 10% | 21% | 6% | nt
CCOCCCNS(=O)(=O)c1ccc2c(c1)CCN2C(=O)CC | -2% | -1.7% | ? | 11% | 4% | 0% | -2% | -4%
O=C(COC(=O)CCCN1C(=O)c2cccc3cccc(c23)C1=O)Nc1ccc(Cl)cc1 | -6% | -8.7% | 2%[46.1 µM] | 7% | 9% | 0% | -5% | 8%
CCc1ccc(NC(=O)Cn2cc(S(=O)(=O)N3CCCC3)c(S(=O)(=O)N3CCCC3)c2)cc1 | nt | -3.1% | nt | ? | nt | -5% | nt | 7%
COc1ccccc1-c1cn(S(=O)(=O)c2ccc(F)cc2)nc1N | -4% | -10% | ? | -25% | 9% | ? | -6% | -5%
C=CCNc1sc(C(=O)C(C)(C)C)c(N)c1C#N | -1% | -4.1% | -29% | -22% | 5% | nt | -8% | -26%
